# TRPML1 blocker – inhibitors of human TRPML1 channel; AID 624415; activity change, negative = inhibition, % (test concentration not listed); TRPML1-inducible cells, Ca2+ dye fluorescence, FDSS; stronger effect = lower value; inhibition of EC80 agonist-evoked calcium signal; 0.02% of 390,000 active; Q9GZU1; in the data active means activity change below about -50%; inconclusive means about -30% to -50%; inactive means above about -30%;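 also: stimulus is agonist 54-4 at its EC80 concentration; % is scaled to controls: 0 for no effect and ±100 for the full control effect; compound concentration not given in the record; the text of the record puts the active cut at -80%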
# Target sequence (Q9GZU1 whole entry, looked up): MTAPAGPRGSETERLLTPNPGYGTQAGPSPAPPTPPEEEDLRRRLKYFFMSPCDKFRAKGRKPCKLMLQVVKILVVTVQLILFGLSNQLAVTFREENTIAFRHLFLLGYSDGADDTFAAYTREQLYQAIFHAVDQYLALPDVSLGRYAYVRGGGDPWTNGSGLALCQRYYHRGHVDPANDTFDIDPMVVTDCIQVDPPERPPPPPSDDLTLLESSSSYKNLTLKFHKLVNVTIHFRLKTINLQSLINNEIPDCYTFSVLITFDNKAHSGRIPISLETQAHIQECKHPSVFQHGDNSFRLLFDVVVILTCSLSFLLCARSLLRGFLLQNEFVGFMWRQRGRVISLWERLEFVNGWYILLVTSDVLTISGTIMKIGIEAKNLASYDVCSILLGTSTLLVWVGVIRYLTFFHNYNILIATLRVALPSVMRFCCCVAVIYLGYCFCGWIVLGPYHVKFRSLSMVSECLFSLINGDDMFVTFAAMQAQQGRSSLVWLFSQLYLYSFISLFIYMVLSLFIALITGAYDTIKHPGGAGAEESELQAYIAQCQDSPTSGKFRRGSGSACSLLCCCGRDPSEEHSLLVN
#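 Tet-induced TRPML1-DL cells loaded with Ca8 no-wash calcium dye were read kinetically on FDSS. Compound addition was followed by EC80 agonist 54-4 (4 uM final); inhibition was read over 110 s.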
# gsp agonist – gsp mutant agonism. gsp mutant cells, cAMP HTRF, 30 min; control for the full effect not named in the record. Potency, µM (titrated, usually from 76.9 µM), inactives show top-dose activation (cAMP increase), hits mostly activators. 0.13% of 340,000 active; active = well fitted activation curve with a large enough effect; inconclusive = small, poorly fitted or top-dose-only effect, or another doubt; inactive = no such curve, though single readings can be large or run the other way; cell line not stated here;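 also: phosphodiesterase inhibitor Ro 20-1724 added with compounds to block cAMP breakdown; potency is read from the fitted curve at half-maximal effect; nearly all actives have a fitted effect of over 60% in size; about a fifth of the inactives were tested at one dose only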
#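 Cells in DMEM/10% FBS with G418 were pretreated with compounds in DMSO plus […] (300 uM stock) for 30 min at 37C. cAMP was measured by HTRF (cAMP-d2 plus anti-cAMP antibody-K) after 30 min at room temperature.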
# TRPML1 agonist – agonists of human TRPML1 channel; Q9GZU1; TRPML1-expressing cells, Ca2+ dye fluorescence, FDSS; host cell line not named in the record; reference of the full effect not given here; activation, % (concentration not given with the values); 0.12% of 410,000 active; AID 624414; in the data active = activation above about 50%; inconclusive = about 30% to 50%; inactive = below about 30%; also: 0% is about no effect; the text of the record puts the active cut at 80%
#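 Kinetic FDSS Ca2+ read in Tet-induced TRPML1-DL cells (ABD Ca8 dye plus quencher, 45-90 min RT loading): baseline, then compound, then 110 s agonist window; EC80 agonist 54-4 at 4uM final added afterwards for a 110 s antagonist window.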
# Menin MLL FP FL – displaces fluorescein MLL peptide from human menin. Fluorescence polarization, fluorescein-MLL peptide displacement from menin. 290,000 tested, under 10 active. FP activity change, % at 61.4 µM. AID 1766; inconclusive = falling polarisation curve, or a change in total fluorescence; inactive = total fluorescence flat and polarisation flat or rising; no compound was filed as active; the % refers to the polarisation; negative = inhibition;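 also: % of control where 0% means no effect; inhibitors lower the polarisation; unlabelled MLL peptide was the positive control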
# ClpP mod – qHTS Assay for Activators of ClpP; Potency, µM (titrated, usually from 57.5 µM), for inactives: at the top dose activity change, negative = active; 1.9% of 340,000 active; purified B. subtilis ClpP, FRET peptide cleavage, 20 min; AID 651965, 2013; active = well fitted falling curve with a large enough effect; inconclusive = small, poorly fitted or top-dose-only effect; inactive = no such curve, though single readings can be large or run the other way; also: potency is read from the fitted curve at half-maximal effect; the source files actives as falling curves though it sought activators and does not explain the sign; nearly all actives have a fitted effect of over 65% in size; many hits overshoot -100%
# Target sequence (P80244 whole entry, looked up): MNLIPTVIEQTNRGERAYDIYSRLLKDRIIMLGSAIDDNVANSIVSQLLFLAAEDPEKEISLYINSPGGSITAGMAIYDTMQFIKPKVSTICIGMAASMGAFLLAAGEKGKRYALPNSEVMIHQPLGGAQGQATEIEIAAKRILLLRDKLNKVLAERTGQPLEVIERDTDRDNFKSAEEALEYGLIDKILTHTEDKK
#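 Purified B. subtilis ClpP, 10 microg/mL final in Tris/HCl pH8 with KCl, BSA, glycerol and Tween-20, cleaved an Abz/nitrotyrosine-quenched decapeptide. Fluorescence (ex 320, em 430) was read at 0 and 20 min at room temperature. Delta was normalized to 5.8 microM ADEP and DMSO/no-enzyme controls.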
# gsp antagonist – antagonizes gsp, the McCune-Albright syndrome mutation | gsp-mutant cells, cAMP HTRF, 30 min; control for the full effect not named in the record | Potency, µM (highest dose often 76.9 µM), for the others: at the highest dose activity change, negative = inhibition, most hits filed as inhibitors | 0.4% of 340,000 active | AID 624288; active = falling curve of any shape with a large fitted effect; inconclusive = falling curve, mostly with a smaller effect; inactive = flat or rising curve; cell line not stated here;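 also: intracellular cAMP measured with PDE inhibitor Ro 20-1724 present during compound exposure; potency is read from the fitted curve at half-maximal effect; % is scaled to controls: 0 for no effect and ±100 for the full control effect; nearly all actives have a fitted effect of over 65% in size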
#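 G418-selected cells were plated in DMEM/10% FBS for 16-24 h at 37C, then treated with compounds plus the PDE inhibitor […] (300 uM solution added) for 30 min at 37C. Intracellular cAMP was measured by HTRF after 30 min lysis at room temperature.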
# Active calls of the source: *; ? = inconclusive; · = not tested or not shown; & = joins results of further samples; [ ] = another dose, or the depositor's remark.
SMILES,TRPML1 blocker,gsp agonist,TRPML1 agonist,Menin MLL FP FL,ClpP mod,gsp antagonist
O=C(COC(=O)c1cccc(S(=O)(=O)N2CCCC2)c1)Nc1ccccc1Cl,56,2%[15.4 µM],4.1,·,·,-1%
CC[C@@H]1C=C(C(=O)O)[C@H](c2ccc(C#N)cc2)N1S(=O)(=O)c1ccc(C)cc1,19,·,-0.4,·,-0.4%,5%
Clc1ccc(-c2csc(-c3ccncc3)n2)cc1,19,11%[15.4 µM],-1.0,0.5,-14%,-7%
CCCCN(CCCC)C(=S)NC(=O)C(C)(C)C,7,0%[15.4 µM],-1.4,4.4,0.8%,16%
COCCCNc1nc2c(c(=O)[nH]c(=O)n2C)n1CC(O)COc1ccccc1 (configuration not stated),-12,24%,-0.7,0.8,5.6%,4%
Cc1nnc(SCCn2c(N3CCCCC3)nc3c2c(=O)n(C)c(=O)n3C)s1,-4,?,0.2,·,-1.3%,7%
N#Cc1ccc(C(=O)Nc2nc(-c3cccs3)c(C(=O)C(F)(F)F)s2)cc1,-2,?,-0.5,3.1,1.4%,-11%
CCN(CC)C(=O)Cn1cc(S(=O)(=O)CC(=O)NCc2ccc(F)cc2)c2ccccc21,10,-3%[15.4 µM],0.2,·,2.0%,8%
CC1CC(C)CN(C(=O)COC(=O)c2cc3ccccc3cc2O)C1 (configuration not stated),4,16%,1.1,2.6,-3.5%,-11%
Cn1ncc(C(=O)N=S(C)(=O)c2ccccc2)c1[N+](=O)[O-] (configuration not stated),3,-8%[15.4 µM],0.1,-2.4,1.8%,7%
O=C(Nc1ccc(C(=O)NCc2ccc(F)cc2)cc1)C1=CSCCO1,-1,-4%,-0.3,0.2,·,-2%
C[C@@H](CO)[C@H](/C=C/c1ccccc1)CCO[Si](c1ccccc1)(c1ccccc1)C(C)(C)C,-9,·,0.1,0.0,·,·
CCC(c1nnnn1Cc1ccco1)N(CCN1CCOCC1)Cc1cc2cc(C)ccc2[nH]c1=O (configuration not stated),10,-1%,2.2,?,-22%,4%
Cc1cc(OCC(O)CN)ccc1Cl (configuration not stated),-9,9%[15.4 µM],1.0,3.1,0.1%,5%
COCCNC(=S)Nc1cc(S(=O)(=O)N2CCOCC2)ccc1N1CCCCC1,22,8%[15.4 µM],0.3,-1.1,-20%,-2%
CCn1cc(S(=O)(=O)Nc2cc(C)ccc2F)cn1,-11,-81%[inhibitor],-0.5,·,1.4%,8%
COc1ccc(N2C(=O)C3CCCN3C2c2cccs2)cc1 (configuration not stated),15,-72%[inhibitor],-0.5,0.5,-1.1%,8%
CC1CCN(c2nn3c(=O)c(C(=O)NCCc4ccc(Cl)cc4)cnc3s2)CC1,13,·,-0.9,·,-22%,·
O=C(C1CCN(S(=O)(=O)c2cccc3nsnc23)CC1)N1CCn2c1nc1ccccc12,-4,0%,-1.0,3.9,-0.4%,-13%
CCCCC(=O)NC(c1ccc(OC)c(OC)c1)c1ccc2cccnc2c1O (configuration not stated),12,-29%,-0.3,·,·,-9%
COc1ccccc1CNC(=O)CSc1nnc(C)c2c(C)n(-c3ccccc3)nc12,10,·,0.1,·,-4.4%,·
Cc1cc(C)c2sc(NNC(=O)C3COc4ccccc4O3)nc2c1 (configuration not stated),38,-46%,0.3,0.4,0.3%,-9%
Cc1cccc(NC(=O)C2CCCN2/C=C/C(=O)C(F)(F)F)c1C (configuration not stated),-11,7%,-0.1,7.0,-0.3%,5%
O=C(COC(=O)c1cnccn1)NCc1ccc2c(c1)OCO2,6,1%[15.4 µM],0.0,-2.9,·,5%
Cc1cc(NC(=O)CCCn2cc([N+](=O)[O-])cn2)n(Cc2ccc(F)cc2)n1,8,24%[15.4 µM],-0.2,-4.3,-2.2%,2%
CC(=O)Nc1ccc(NC(=O)c2ccccc2Sc2ccc([N+](=O)[O-])cc2Cl)cc1,24,-25%,4.3,0.2,·,?
CN(CCCC1CCCC1)C(=O)c1cc(COc2ccc(F)c(F)c2)on1,-18,13%,1.0,-4.8,-2.6%,0%
Cc1onc(-c2ccccc2)c1C(=O)NC(C)C,-14,1%,-0.1,2.1,0.0%,7%
O=C(NCCc1ccccc1)Oc1ccc(Cl)cc1,-9,2%,-0.6,0.2,-0.2%,10%
CCCCCCC(O)(c1ccc(OC)cc1)C(CN1CCOCC1)c1ccccc1 (configuration not stated),16,-11%,-0.2,-5.5,-5.9%,-7%
CCO[C@@H]1OC(C(=O)O)=C[C@H](c2cn(C(C)=O)c3ccccc23)[C@H]1CCCO,2,·,-0.7,·,2.7%,6%
CCOc1ccc2cc(C3CC(c4ccco4)=NN3S(C)(=O)=O)c(Cl)nc2c1 (configuration not stated),15,6%[15.4 µM],1.7,6.5,·,?
Cc1cccc(CCNC(=O)c2cccc(NC3=NC4CS(=O)(=O)CC4S3)c2)c1 (configuration not stated),-5,-24%,0.1,1.3,3.1%,12%
COCC(C)NCc1ccccc1C (configuration not stated),5,2%,-0.1,-1.0,4.5%,1%
Cc1ccc(CCNC(=O)c2ccc3c(=O)n(-c4ccc(C)cc4)c(=O)[nH]c3c2)cc1,23,·,-1.4,·,-2.7%,·
COC(=O)NC1(C(F)(F)F)C(=O)NC(C)=C1C(=O)OC (configuration not stated),5,-37%[inhibitor],-0.7,-6.7,?,9%

# Among those listed so far, these contain an NH in an aromatic ring:
SMILES,TRPML1 blocker,gsp agonist,TRPML1 agonist,Menin MLL FP FL,ClpP mod,gsp antagonist
COCCCNc1nc2c(c(=O)[nH]c(=O)n2C)n1CC(O)COc1ccccc1 (configuration not stated),-12,24%,-0.7,0.8,5.6%,4%
CCC(c1nnnn1Cc1ccco1)N(CCN1CCOCC1)Cc1cc2cc(C)ccc2[nH]c1=O (configuration not stated),10,-1%,2.2,?,-22%,4%
Cc1ccc(CCNC(=O)c2ccc3c(=O)n(-c4ccc(C)cc4)c(=O)[nH]c3c2)cc1,23,·,-1.4,·,-2.7%,·

# Next section:
SMILES,TRPML1 blocker,gsp agonist,TRPML1 agonist,Menin MLL FP FL,ClpP mod,gsp antagonist
Cc1nc2c(C(=O)NCc3ccccc3Cl)cnn2c(C)c1Cc1c(F)cccc1Cl,18,·,1.8,·,-27%,·
O=C(C(=O)N1CCN(C(=O)c2ccco2)CC1)c1c[nH]c2ccccc12,52,13%,0.3,-0.6,0.3%,-2%
Cc1ccc(NC(=O)CCc2ccc(S(=O)(=O)N3CCOCC3)cc2)c(C)c1,-1,-21%,-0.3,-1.8,0.9%,6%
CCOc1ccc(/C(O)=C2/C(=O)C(=O)N(c3ccccn3)C2c2ccc(Cl)cc2)c(C)c1 (configuration not stated),8,?,0.7,-11,·,3%
CCC(C)(C(=O)NC1CCCC1)N(C(=O)CNC(C)=O)c1ccc(C)cc1 (configuration not stated),16,7%,-0.1,-6.5,-1.6%,2%
CCCCNC(C(=O)Nc1ccc([N+](=O)[O-])cc1Br)c1ccccc1 (configuration not stated),-8,1%,-0.1,·,-8.6%,-3%
COc1ccc(-c2cc3ccc(O)c(CN4CCN(C)CC4)c3oc2=O)cc1OC,1,·,9.5,·,4.1%,·
Cc1csc(NC(=O)CCn2c(=O)sc3ccccc32)n1,3,-25%,-0.5,-1.6,0.2%,-19%
CCOC(=O)C1CCN(C(=O)COc2cccc(C)c2)CC1,-6,-31%,-0.3,-0.3,-0.2%,5%
O=C(CCc1ccc(S(=O)(=O)NC2CCCCC2)cc1)NCc1ccccn1,7,?,3.9,?,·,4%
S=c1nc(-c2ccccc2)oc2c1CCCC2,-1,16%[15.4 µM],0.1,2.5,0.6%,-2%
CCOc1ccccc1C(=O)NCC(=O)O,·,·,·,-1.3,-1.2%,10%
O=[N+]([O-])c1cc(-n2cccc2)ccc1N1CCOCC1,18,17%[15.4 µM],-0.4,0.5,-9.7%,-6%
Cc1ccc2c(c1)C(O)(CC(=O)c1ccc(C)s1)C(=O)N2 (configuration not stated),-17,-20%,2.4,2.6,-0.5%,0%
Cc1[nH]c(=O)[nH]c(=O)c1/C=N/NC(=O)CCNC(=O)OC(C)(C)C,·,6%,·,-1.2,-0.8%,6%
Cc1cccc2nc(-c3cccc(NS(=O)(=O)c4ccccc4)c3)cn12,-7,·,2.0,·,?,·
O=C(c1ccc(OCCN2CCCCC2)cc1)c1c(-c2ccc(O)cc2)sc2cc(O)ccc12,0&-19,·,0.5&-0.3,6.4,2.2%&-3.6%,-8%&-1%
CCCCCC/C(=N/O)c1ccccn1,16,-14%,-0.5,2.6,0.6%,-5%
Cc1ccc(N=C2NC(=O)C(CC(=O)NCc3ccccc3)S2)cc1C (configuration not stated),7,2%,-0.7,2.7,-1.3%,-14%
Cc1cc2ncn(C(=O)N3CCC(C)CC3)c2cc1C,19,-2%,-1.5,5.6,-18%,-9%
CCOC(=O)Cn1c(=O)cnc2ccccc21,5,-3%,-0.1,-0.9,?,10%
C[N+]1(CCn2ccc3ccccc32)CCCCC1,3,-24%,0.6,-7.7,-2.0%,-1%
CCCCN1C(=O)C(=O)N(CC(=O)N2N=C3/C(=C/c4ccco4)CCCC3C2c2ccco2)C1=O (configuration not stated),7,-2%[15.4 µM],0.7,5.7,·,-12%
COc1ccc(-c2nc3ccc(N4CCCC4)cc3c(=O)[nH]2)cc1OC,2,-6%[15.4 µM],1.8,-2.3,-1.3%,-12%
CN(C)c1ccc(CNC(=O)CCn2c(=O)c3cccn3c3ccc(F)cc32)cc1,-2,·,1.5,·,-6.6%,·
CN(c1ccccc1)S(=O)(=O)c1ccc(Cl)c(C(=O)NC2=NCCS2)c1,7,-46%[inhibitor],1.7,-5.0,-2.1%,3%
COc1ccc(-c2nn(C)c3sc(C(=O)Nc4cccc(F)c4)cc23)cc1OC,6,·,0.8,·,4.4%,·
CC(=O)Nc1ccc(S(=O)(=O)Nc2nc3ccccc3nc2N2CCOCC2)cc1,-9,17%[15.4 µM],0.7,·,-2.0%,-20%
CN(C(=O)COC(=O)Cc1c(F)cccc1Cl)c1c(N)n(Cc2ccccc2)c(=O)[nH]c1=O,-5,5%,-0.8,·,-18%,-1%
O=C(CCCn1c(=O)c2sccc2n(Cc2ccc(F)cc2)c1=O)NCc1ccco1,29,-26%,2.1,3.6,-0.4%,8%
CCn1c(CNc2ccc(Cl)cc2)nnc1SCCN1CCCCC1,-2,27%,-0.5,-3.4,-29%,5%
Cc1cc(Nc2cc(F)ccc2C)n2nc(C)nc2n1,2,-30%[inhibitor],1.6,3.5,-3.1%,-9%
Cc1ccccc1C(=O)Nc1nnc(CC(=O)N/N=C/c2cn(Cc3ccccc3)c3ccccc23)s1,·,?,·,2.5,0.3%,3%
CC1SC(=NC(=O)c2ccncc2)NC1=O (configuration not stated),-15,-19%[15.4 µM],0.4,2.3,·,-4%

# Assay outcomes from PubChem BioAssay.
